PINK1 modulator: modulators of PINK1 expression; PINK1 immunofluorescence, high-content cytometry, 24 h; Potency, µM (titrated, usually from 76.6 µM), inactives show top-dose activation (PINK1 increase), actives largely listed as activators; 0.2% of 410,000 active; AID 624263; active = well fitted activation curve with a large enough effect; inconclusive = small, poorly fitted or top-dose-only effect; inactive = flat fitted curve, though single readings scatter; cell line not stated here;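 also: potency is read from the fitted curve at half-maximal effect; % of control where 0% means no effect; nearly all actives have a fitted effect of over 65% in size; a mitochondrial uncoupler was the plate control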
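Fluorescence from anti-PINK1 antibody, together with nuclear and cell stains, was scanned on a laser-scanning cytometer. Before staining, stable-line cells were incubated 24 hours with compounds at 5 concentrations; primary antibody 12 h at 10 degrees C.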
ClpP mod: qHTS Assay for Activators of ClpP. purified B. subtilis ClpP, FRET peptide cleavage, 20 min. Potency, µM (series often up to 57.5 µM), without a hit: at the top dose activity change, negative = active. 1.9% of 340,000 active. AID 651965, 2013; active = well fitted falling curve with a large enough effect; inconclusive = small, poorly fitted or top-dose-only effect; inactive = no such curve, though single readings can be large or run the other way; also: potency is read from the fitted curve at half-maximal effect; the source files actives as falling curves though it sought activators and does not explain the sign; nearly all actives have a fitted effect of over 65% in size; many hits overshoot -100%
Target sequence (P80244 whole entry, looked up): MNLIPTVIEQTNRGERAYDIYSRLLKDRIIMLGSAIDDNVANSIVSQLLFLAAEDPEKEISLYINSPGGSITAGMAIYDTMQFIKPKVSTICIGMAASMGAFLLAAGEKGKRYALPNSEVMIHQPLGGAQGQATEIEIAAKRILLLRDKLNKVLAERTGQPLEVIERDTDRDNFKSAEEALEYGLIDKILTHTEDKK
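Buffer: 100 mM Tris/HCl pH8, 100 mM KCl, 0.05% low protease BSA, 2.5% glycerol, 0.01% Tween-20. ClpP 10 microg/mL final; 20 min RT; delta FRET normalized to ADEP and DMSO controls.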
Sfp inh: Sfp phosphopantetheinyl transferase inhibition; Q9F4F7; Biochemical Sfp PPTase activity, qHTS; Potency, µM, without a hit: max response, negative = inhibition, hits mostly inhibitors; 3.5% of 310,000 active; AID 1490; active = well fitted inhibition curve with a large enough effect; inconclusive = small, poorly fitted or top-dose-only effect, or another doubt; inactive = no such curve, though single readings can be large or run the other way;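 also: the enzyme is Sfp with the accession as filed and its product quenches rhodamine fluorescence; potency is read from the fitted curve at half-maximal effect; 0% = enzyme reaction without inhibitor and -100% = no enzyme wells; top concentration of the series not given in the record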
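With Hepes-Na pH 7.6 buffer containing 10 mM MgCl2, Sfp (15 nM) modified BHQ-2-YbbR (12.5 uM) using rhodamine-CoA (5 uM). Two reads 30 minutes apart at 525/598 nm yielded each well's rate.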
TRPML1 agonist: activates the human TRPML1 channel. TRPML1-expressing cells, Ca2+ dye fluorescence, FDSS; host cell line not named in the record; reference of the full effect not given here. activation, % (concentration not given with the values). 0.12% of 410,000 active. Q9GZU1; in the data active = activation above about 50%; inconclusive = about 30% to 50%; inactive = below about 30%; also: 0% is about no effect; the text of the record puts the active cut at 80%
Target sequence (Q9GZU1 whole entry, looked up): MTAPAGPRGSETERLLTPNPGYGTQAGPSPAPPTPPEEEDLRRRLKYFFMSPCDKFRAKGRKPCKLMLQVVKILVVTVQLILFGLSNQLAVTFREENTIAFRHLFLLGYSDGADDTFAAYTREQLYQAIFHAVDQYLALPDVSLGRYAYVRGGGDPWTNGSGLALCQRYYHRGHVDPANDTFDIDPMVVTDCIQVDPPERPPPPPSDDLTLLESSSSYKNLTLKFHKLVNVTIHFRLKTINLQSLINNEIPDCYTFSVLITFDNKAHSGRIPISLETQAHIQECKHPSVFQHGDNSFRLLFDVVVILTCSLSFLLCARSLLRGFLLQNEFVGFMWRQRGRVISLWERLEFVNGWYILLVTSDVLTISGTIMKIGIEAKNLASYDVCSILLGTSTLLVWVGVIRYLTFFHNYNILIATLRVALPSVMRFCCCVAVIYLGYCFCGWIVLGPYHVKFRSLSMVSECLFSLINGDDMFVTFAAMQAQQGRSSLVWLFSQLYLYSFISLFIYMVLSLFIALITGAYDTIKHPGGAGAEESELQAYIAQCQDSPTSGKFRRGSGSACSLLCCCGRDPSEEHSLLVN
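Tetracycline-induced TRPML1-DL cells are seeded and incubated overnight before loading with a no-wash Ca2+ dye and quencher. Agonist activity is taken from the 110 s fluorescence read following compound pin-transfer on an FDSS, before EC80 54-4 challenge.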
TRPV1 PAM: potentiators of human vanilloid receptor 1 (TRPV1); TRPV1-expressing cells, Fluo-8 calcium influx, capsaicin EC20 potentiation; host cell line not named in the record; control for the full effect not named in the record; potentiation, % at 8.33 µM; 0.02% of 320,000 active; active means potentiation above 80%; inconclusive means 30% to 80%; inactive means below 30%; also: 0% is about no effect
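Fluo-8 calcium influx in TRPV1-expressing cells, kinetic read (ex 480/em 520 nm). Compound added and read 3 min for agonist activity, followed by capsaicin at EC20 final and 2 min further read for enhancement.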
Menin-MLL FL inh: inhibitors of human menin-MLL interaction, wild-type MLL peptide | Fluorescence polarization, fluorescein-MLL peptide displacement from menin | FP activity change, % at 61.4 µM | 290,000 tested, under 10 active; inconclusive = falling polarisation curve, or a change in total fluorescence; inactive = total fluorescence flat and polarisation flat or rising; no compound was filed as active; the % refers to the polarisation; negative = inhibition;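 also: % of control where 0% means no effect; inhibitors lower the polarisation; unlabelled MLL peptide was the positive control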
TRPML1 blocker: blocks the human TRPML1 channel; Q9GZU1; TRPML1-inducible cells, Ca2+ dye fluorescence, FDSS; active compounds read low; inhibition of EC80 agonist-evoked calcium signal; activity change, negative = inhibition, % (concentration not given with the values); 0.02% of 390,000 active; in the data active means activity change below about -50%; inconclusive means about -30% to -50%; inactive means above about -30%;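 also: stimulus is agonist 54-4 at its EC80 concentration; % is scaled to controls: 0 for no effect and ±100 for the full control effect; the text of the record puts the active cut at -80%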
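Tet-induced TRPML1-DL cells loaded with Ca8 no-wash calcium dye were read kinetically on FDSS. Compound addition was followed by EC80 agonist 54-4 (4 uM final); inhibition was read over 110 s.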
Active calls of the source: *; u = inconclusive; x = not tested or not shown; & = joins results of further samples; [ ] = another dose, or the depositor's remark.

Results follow in this order: PINK1 modulator	ClpP mod	Sfp inh	TRPML1 agonist	TRPV1 PAM	Menin-MLL FL inh	TRPML1 blocker
Cc1ccc(C(=O)N2C(=O)c3cccc(N)c3C2=O)o1
 : -1.3%	x	6.4%	0.5	-1.8	-5.5	-20.4
COc1ccc(C)cc1N(CC(=O)O)S(=O)(=O)c1ccc(C)cc1
 : -0.2%	0.0%	15.0%	-0.5	5.9	2.5	3.1
CC(C)n1c(SCC(=O)Nc2ccccc2N2CCOCC2)nc2c1c(=O)n(C)c(=O)n2C
 : 0.5%	-0.7%	6.1%	-1.1	25.4	2.4	0.3
Cc1ccc(C)c(S(=O)(=O)c2nnn3c2nc(NC2CCCCC2)c2sccc23)c1
 : -0.6%	35.5µM*	x	0.3	x	x	3.2
CCSc1nc2c(c(=O)[nH]c(=O)n2C)n1C
 : -2.6%	-0.8%	3.9%	2.1	-1.2	1.7	-2.0
CN(C)c1ccc(C(CC(=O)O)NC(=O)c2ccc(Cl)cc2)cc1 (centres undefined)
 : -2.5%	-1.1%	20.5%	1.4	-11.7	-0.5	-1.7
Cc1ccc(C(=O)NC(=S)N2CCN(C(=O)OC(C)(C)C)CC2)cc1Br
 : 0.3%	0.2%	21.9%	-0.2	-13.7	-2.1	-15.3
Cc1ccccc1CSc1nnc(C)c(=O)n1N
 : -0.3%	1.1%	11.0%	-0.1	29.9	3.4	15.8
Cc1c(Cl)c([N+](=O)[O-])nn1CCCC(=O)Nc1sc2c(c1C#N)CCC2
 : -4.0%[38.3 µM]	-0.4%	u	-0.6	17.1	3.1	-7.6
CC(C)N(C(=O)CSc1nnc(CSc2ncccn2)n1C)C(C)C
 : -0.3%	-3.7%	22.4%	0.2	-1.5	-1.2	12.3
O=C(Nc1ccccc1Cl)C(Cl)C(=O)c1ccccc1 (centres undefined)
 : -0.6%	x	13.2%	0.1	1.8	-1.9	-10.0
COc1ccc(/C=C/C(=O)NCc2ccc(F)cc2)cc1S(=O)(=O)N1CCOCC1
 : 1.8%	x	2.3%	1.3	-1.2	1.0	12.5
CSc1ccc(C2c3[nH]c4ccccc4c3CCN2C(=O)CCC2CCCC2)cc1 (centres undefined)
 : 2.3%	-6.0%	x	-0.3	x	x	-6.0
O=C(CSCc1ccccc1Cl)NNC(=O)c1ccccc1
 : 6.4%[38.3 µM]	0.7%	9.5%	1.3	-1.1	1.0	-4.1
Cc1ccc(C(=O)Nc2cc(Cl)ccc2Oc2ccccc2)cc1[N+](=O)[O-]
 : 1.2%	-1.4%	20.4%	2.3	10.5	-0.6	33.3
COc1ccc(C(=O)NC2CCN(S(=O)(=O)c3ccc(C)cc3)CC2)cc1
 : 2.5%	2.9%	5.3%	0.9	6.4	-0.3	21.1
COCCN1C(=O)N(C)[C@@H](c2ccccc2)C(C(C)=O)=C1C
 : 0.5%	-1.0%	0.0%&11.8%	1.0	19.5	1.6[11.7 µM]	20.0
COCCN1C(=O)N[C@@H](c2ccc(Br)cc2)C(C(C)=O)=C1C
 : x	x	0.1%&-0.3%	x	5.5	-2.9&-0.3	x
CCc1nc2ccc(C(=O)NCc3ccccc3OC)cn2c1N(CC)CCOC
 : 1.3%	1.0%	x	-1.3	x	x	x
CCOC(=O)c1ccc(NC(=O)Cn2cc(C(=O)C3CC3)c3ccccc32)cc1
 : -0.3%	0.0%	x	0.5	x	x	-8.1
CCCCn1nnnc1SCC(=O)NCc1ccccc1
 : 1.3%	0.3%	16.1%	-0.1	8.0	-0.6	4.9
COc1ccccc1CNS(=O)(=O)c1cc(CN2C(=O)c3cccnc3C2=O)ccc1OC
 : 0.3%	2.3%	3.5%	3.6	13.6	1.0	-2.2
COc1cccc(NC(=O)CSc2nnc(NC(=O)C3CCC3)s2)c1
 : 2.3%	x	10.5%	0.1	-2.5	3.6	2.6
Cc1cc(C)nc(Nc2nc(C(N)CCc3ccccc3)cs2)n1 (centres undefined)
 : -0.4%	-1.0%	x	-0.6	x	x	1.4
O=C(Nc1sc2c(c1C(=O)NCC1CCCO1)CCC2)c1cc(=O)c2cc(Cl)ccc2o1 (centres undefined)
 : 6.1%	-0.8%	x	1.0	x	x	-17.2
CNC(C)C#Cc1c(-c2cc(OC)c(OC)c(OC)c2)noc1C (centres undefined)
 : 4.8%	-0.7%&-1.4%	3.6%	-0.6&-1.0	-2.7	2.5	-6.6
COc1ccc(-c2nc3cnc(OC)nc3n(C)c2=O)cc1
 : -0.2%	x	14.4%	x	x	u	x
COc1ccc2oc(=O)c(-c3nnc(NCc4ccco4)s3)cc2c1
 : 1.5%	-1.6%	-28.3%	-0.1	5.2	-3.8	-3.9
O=C(NCc1ccc(Cl)cc1)C1CC(O)CN1S(=O)(=O)c1ccc(Cl)cc1 (centres undefined)
 : 2.1%	x	16.2%	0.6	-8.9	4.3	2.0
CC(OC(=O)c1ccc([N+](=O)[O-])cc1)C(=O)NCC1CCCCC1 (centres undefined)
 : 9.0%	0.1%	x	-0.8	x	x	3.5
CCOC(=O)CNC(=O)CN1C(=O)CCSc2ccccc21
 : 1.1%[38.3 µM]	0.0%	18.5%	1.5	-3.1	0.3	6.8
CC(=O)Oc1ccc(-c2cccc(C(=O)OCC(=O)Nc3ccccc3Oc3ccccc3)c2)cc1
 : u	-7.9%	5.0%	2.6	-0.2	1.4	11.6
CNC(=S)N1N=C(c2ccc(C)cc2)CC1c1ccc(OC)c(OC)c1 (centres undefined)
 : 4.1%	0.5%	-11.3%	0.0	-5.1	2.5	14.4
CCN(CC)S(=O)(=O)c1ccc(NN=c2c(=O)c3ccccc3c2=O)cc1
 : 2.5%	0.7%	5.6%	0.4	-10.1	0.6	5.0
CS(=O)(=O)N(CC(=O)N1CCN(c2ccccc2)CC1)c1cc(C(F)(F)F)ccc1Cl
 : -0.9%[38.3 µM]	1.1%	19.0%	-0.2	-3.0	3.1	-8.2
O=C(O)C(Cc1ccccc1)N=Cc1c(O)c2ccccc2oc1=O (centres undefined)
 : 2.9%	x	17.9%	2.4	2.7	2.6	5.7
CSc1nc(Oc2ccc(=O)n(C)n2)nc(N(C)C)n1
 : -2.0%	-3.5%	4.2%	2.8	0.2	6.9	-16.5
O=C(CCc1nc2ccccc2s1)OCc1ccccc1F
 : 6.0%	0.1%	11.0%	-0.8	-18.1	-0.5	6.4
Cc1c(C(=O)N2CCC(n3nccc3NC(=O)C3CC3)CC2)[nH]c2ccc(Cl)cc12
 : -0.8%	-1.7%	2.3%	1.2	-2.7	x	18.8
COc1ccccc1N1CCN(C(=O)c2cc(-c3ccccc3O)on2)CC1
 : -1.4%&3.9%	-3.4%	-3.1%	0.7&0.5	0.4	0.0	-15.0&-4.2
CCC(CO)Oc1cc(NCc2cccc(F)c2)c2ncn(C(C)C)c2c1 (centres undefined)
 : -0.4%	-4.8%	x	0.0	x	x	-6.2
CCOc1cccc(-c2nnc3sc(-c4cc(OC)c(OC)cc4OC)nn23)c1
 : x	x	21.7%	x	25.2	4.1	x
COc1ccc(Cn2c(C)c(C)c(C#N)c2NC(=O)Nc2ccc(Cl)cc2)cc1
 : 8.1%	1.2%	0.3%	1.5	-0.1	u	-4.4
CCCOC(=O)Nc1ccc(N2CCCCC2)cc1
 : 2.5%	-3.1%	-17.1%	1.2	4.5	2.9	-4.3
O=C(NC1CCCCC1)C1c2ccccc2OCC(=O)N1Cc1ccc2c(c1)OCO2 (centres undefined)
 : -1.0%	-3.6%	x	-0.3	x	x	x
CCc1nc2c(OCC(N)=O)cccn2c1N(C)C(=O)C(C)C
 : -0.3%	-0.2%	x	-0.5	x	x	x
O=C(Nc1cc(S(=O)(=O)N2CCOCC2)ccc1Cl)c1cc([N+](=O)[O-])ccc1Cl
 : -3.8%	x	x	0.0	x	x	14.1
C[C@H](NS(=O)(=O)c1ccc(F)cc1)C(=O)OCC(=O)c1c(N)n(C)c(=O)n(C)c1=O
 : 1.6%	x	x	0.4	x	x	16.4
Clc1cccc(N2CCN(Cc3nc(-c4ccccc4)no3)CC2)c1
 : -1.0%	1.4%	9.5%	2.7	u	2.4	35.0
C/C(=N/OCO/N=C(/C)c1ccc(F)cc1)c1ccc(F)cc1
 : 7.3%	0.6%	11.5%	1.0	-5.6	3.7	7.7
COc1ccc(C(=O)COC(=O)CNC(=O)c2cccs2)cc1Br
 : -0.1%	x	1.2%	1.3	1.7	u	0.7
Cc1ccccc1NCCC(=O)Nc1ccc(F)cc1
 : 4.0%	x	10.3%	1.6	-5.1	0.1	-6.4
CC(C)CCNC(=O)C1CC2Cn3c(nc4cc(Cl)c(Cl)cc43)C2N1C (centres undefined)
 : 0.8%	1.0%	x	0.7	x	x	6.5
Cc1cccc2cc(CNCC3CCCO3)c(Cl)nc12 (centres undefined)
 : 1.8%	x	-8.3%	0.2	-9.9	3.3	42.9
O=C(CSc1nc(-c2ccco2)cc(C(F)(F)F)n1)N1CCSCC1
 : 0.6%	-10.6%	-3.4%	-0.7	-5.4	-0.1	-4.1
C=C1CCC(N(O)c2cc(C)on2)C(=C)CCC2C1CC2(C)C (centres undefined)
 : 16.2%	2.6%	x	-0.4	-9.2	x	5.8
Cc1ccccc1OCc1nc2c3cnn(C)c3ncn2n1
 : x	-0.4%	13.8%	-0.2	-3.1	2.8	-3.1
COc1ccc(-c2cn(Cc3ccc4ccccc4c3)nn2)cc1
 : 1.7%	u	19.9%	4.0&1.9	25.0	1.9	18.9
Cc1ccc(CC(=O)Nc2cccc(C#N)c2)cc1
 : -2.5%	-3.1%	12.5%	-0.2	-10.6	0.2	-2.4
Cc1ccc(-n2nc(CO)c(C(=O)NCC(c3ccccc3)c3ccccc3)n2)cc1
 : -0.3%	-10.8%	x	1.8	x	x	u
Nc1ccc(C(=O)OCC(=O)Nc2cc([N+](=O)[O-])ccc2F)cc1
 : -0.8%	-1.5%	3.4%	0.5	-0.7	9.3	-12.4
COC(=O)c1cccc(NC(=O)C23CC4CC(C2)CC(n2cncn2)(C4)C3)c1
 : 5.6%	-2.0%	8.5%	-0.7	22.1	-1.3	-3.0
CCn1c(SCC(=O)N2CCC(C)CC2)nc2c(c1=O)SC(C)C2 (centres undefined)
 : 3.0%	-1.6%	-2.3%	1.4	-2.3	4.1	7.7
